Screening data (PubChem)
Vaccinia mCherry: qHTS for Stage-Specific Inhibitors of Vaccinia Orthopoxvirus: mCherry Reporter Primary qHTS | Vaccinia virus mCherry reporter infection, fluorescence; about a quarter of the inactives have no number | Potency, µM (series often up to 36.5 µM), for the others: at the highest dose activity change, negative = inhibition, actives largely listed as inhibitors | hit rate 0.63% among 310,000 | AID 720579, 2013; active = well fitted inhibition curve with a large enough effect; inconclusive = small, poorly fitted or top-dose-only effect; inactive = no such curve, though single readings can be large or run the other way; tested in A549 cells; note: nearly all actives have a fitted effect of over 35% in size; inactives centre near -10
Vaccinia Venus: qHTS for Stage-Specific Inhibitors of Vaccinia Orthopoxvirus: Venus Reporter Primary qHTS. hit rate 0.46% among 330,000. Vaccinia virus Venus reporter expression, fluorescence. Potency, µM (series often up to 36.5 µM), for the others: top-dose activity change, negative = inhibition, usual class: inhibitors; active means well fitted inhibition curve with a large enough effect; inconclusive means small, poorly fitted or top-dose-only effect; inactive means no such curve, though single readings can be large or run the other way; tested in A549 cells; note: nearly all actives have a fitted effect of over 30% in size; inactives centre near -10
Active calls of the source: *; i = inactive; ? = inconclusive; nt = no result given; & = joins results of further samples; [ ] = dose if it differs, or a comment. % is set by controls: 0 for no effect and ±100 for the full control effect; potency is the fitted concentration of half-maximal effect. Compounds as they come. About 0.82% of those tested had a hit in this group.

mol | Vaccinia mCherry | Vaccinia Venus
CN1CCN(NC(=S)Nc2ccc(OC(F)F)cc2)CC1 | -8% | -8%
N#Cc1ccc(CN2CCN(C(=O)C3CC(=O)N(c4ccc5c(c4)OCCO5)C3)CC2)cc1 (stereo unspecified) | i | -13%
Nc1cccc2cc(S(=O)(=O)O)ccc12 | i | 5%
Cc1cc(C)nc(NS(=O)(=O)c2ccc(NC(=O)CCCN3C(=O)c4ccccc4C3=O)cc2)n1 | i | -10%
CCOC(=O)c1cnc(-n2nc(C)cc2C)nc1Nc1ccc(C)cc1 | -17% | -4%
CC1CCCCN1C(=S)Nc1ccc(OC(F)F)cc1 (stereo unspecified) | i | -22%
CCOc1ccc(NC(=O)Cn2nc(Cc3ccncc3)c3ccccc3c2=O)cc1 | -11% | -9%
CCCCN(C=O)c1c(CC)nc2c(OCC(=O)c3ccc(F)cc3)cccn12 | -5% | 6%
CC(C)(C)NC(=S)NC1CC1 | -29% | -5%
CC(C)(C)NC(=O)CN(C(=O)c1ccc(Cl)nc1)c1cccc2ccccc12 | ? | -15%
O=C(Nc1ccc2c(c1)OCO2)C1CC(c2c(F)cccc2Cl)=NO1 (stereo unspecified) | -19% | -7%
C=CCOc1ccc(/C=C/C(=O)OCC(=O)NC(C)c2ccc(F)cc2)cc1 (stereo unspecified) | -1% | -13%
Cc1cc(C)cc(N(C(C)C(=O)N2CCCCC2)S(C)(=O)=O)c1 (stereo unspecified) | i[1.46 µM] | -16%
Cc1ccc(S(=O)(=O)N2C[C@@H]3[C@H]4CC[C@H](C4)[C@@H]3[C@@H](C)[C@@H]2c2ccn(Cc3ccccc3)c2)cc1 | i | 0%
O=C(CC(c1ccccc1)c1ccccc1)Nc1nn[nH]n1 | -1% | -4%
Cc1ccc(N(CCO)C(=S)Nc2ccccc2)cc1 | -7% | -13%
CN(C)CCCn1c(=O)n(Cc2ccco2)c(=O)c2c3c(sc21)CCCCC3 | i | -17%
Clc1ccc2nc(-c3ccncc3)cc(-c3ccccc3)c2c1 | -19% | -18%
CC(C)CN(C(=O)COC(=O)c1ccc2ccccc2c1)c1c(N)n(Cc2ccccc2)c(=O)[nH]c1=O | -7% | 8%
CCN(CC)CCNC(=O)c1ccccc1N | nt | -19%
COc1cccc(N2C(=O)CN(Cc3cc(OC)c(OC)c(OC)c3)C2=S)c1 | i | -11%
CCN(C(=O)c1cc2c(=O)oc3ccc(C)cc3c2s1)c1ccccc1F | -9% | -14%
CCc1ccc(OCC(=O)OCC(=O)NCCNC(=O)COC(=O)COc2ccc(CC)cc2)cc1 | -1% | -20%
CC(C)C(=O)N[C@@H]1c2ccccc2CC[C@@H]1OCc1ccccc1 | i | 0%
Cc1ccc(CNC(=O)c2cc3c(=O)n(Cc4cccnc4)ccc3nc2C)cc1 | 0% | -5%
S=C(NCCc1ccc(Cl)cc1)NC1CCCCC1 | -23% | -8%
Cc1ccc(NC(=O)N2CCN(C(=O)c3nsc4ccccc34)CC2)cc1C | -17% | -21%
COc1ccc(CCNC(=O)C(=O)NCC(c2ccco2)S(=O)(=O)c2ccc(F)cc2)cc1 (stereo unspecified) | -10% | -10%
CC(C)[C@H]1C(=O)Nc2ccccc2N1C(=O)N[C@@H](Cc1ccccc1)C(=O)N[C@H](C(=O)O)c1ccccc1 | 14% | 3%
CN(Cc1ccccc1)c1ccc(C=O)cc1 | -4% | 0%
COc1ccc(NS(=O)(=O)c2cccs2)cc1S(=O)(=O)N1CCCCC1 | -27% | -15%
Cc1ccc(CNC(=O)C2CCCN(c3nc4c(C)cc(C)cc4s3)C2)cc1 (stereo unspecified) | 6% | -10%
Cc1cc(=O)oc2cc(OCC(=O)Nc3ccccc3C(=O)O)ccc12 | -3% | 1%
O=C(NCc1cccnc1)c1ccc(Cl)c(S(=O)(=O)N2CCOCC2)c1 | i | -10%
CCCCN(C(=O)c1cc(Cl)nc2ccccc12)c1c(N)n(CCC)c(=O)[nH]c1=O | -11% | -13%
CC(=O)NC(Cc1ccccc1)Cc1ccccc1 | -6% | -12%

Not a retest: 5 of the compounds above.
mol | Vaccinia mCherry | Vaccinia Venus
Cc1ccc(CNC(=O)c2cc3c(=O)n(Cc4cccnc4)ccc3nc2C)cc1 | 0% | -5%
S=C(NCCc1ccc(Cl)cc1)NC1CCCCC1 | -23% | -8%
Cc1ccc(NC(=O)N2CCN(C(=O)c3nsc4ccccc34)CC2)cc1C | -17% | -21%
COc1ccc(CCNC(=O)C(=O)NCC(c2ccco2)S(=O)(=O)c2ccc(F)cc2)cc1 (stereo unspecified) | -10% | -10%
CC(C)[C@H]1C(=O)Nc2ccccc2N1C(=O)N[C@@H](Cc1ccccc1)C(=O)N[C@H](C(=O)O)c1ccccc1 | 14% | 3%

Next results follow.
mol | Vaccinia mCherry | Vaccinia Venus
COc1cc(-c2nnc3n2N=C(c2ccccc2)CS3)cc(OC)c1OC | ? | ?
CCCN(C(=O)Cn1cc(S(=O)(=O)N2CCN(c3ccccc3F)CC2)c2ccccc2c1=O)c1cccc(C)c1 | -11% | -3%
Cc1ccc(C[n+]2cccc(-c3ccccc3)c2)c(C)c1 | -27% | -13%
CCNS(=O)(=O)c1ccc(CCC(=O)NCc2ccccc2)cc1 | -7% | -22%
CCC(=O)N1c2ccccc2CC1C(=O)NCCc1ccccc1C (stereo unspecified) | -10% | -4%
COc1cc(O)oc1C=Nc1ccccc1 | -14% | -7%
CCOC(=O)CC/C(=N\NC(N)=O)c1ccc(OC)c(Cl)c1 | i | -3%
COC(=O)C1=C(C)N(Cc2ccc(OC)cc2)C(=O)/C1=C\c1ccco1 | ? | 2%
Cc1ccc(CNC(=O)c2ccc(S(=O)(=O)N(C)C)cc2)n1C | -28% | -13%
Cc1c(S(=O)(=O)c2cccc(Cl)c2)nnn1-c1cccc(C(F)(F)F)c1 | 0% | 9%
Cc1cc(C(=O)COC(=O)c2ccc(N)c([N+](=O)[O-])c2)c(C)n1Cc1ccc2c(c1)OCO2 | -21%[7.34 µM] | -7%[7.34 µM]
COc1ccc(C(=O)Cn2nc(CNc3ccc(Br)cc3)[n+]3c2CCCCC3)cc1 | -6% | -8%
CCCCNC(=S)Nc1ccc2nc(N3CCN(CC)CC3)cc(C)c2c1 | -17% | -27%
CCOc1ccc(C(F)(F)F)cc1NC(=O)COc1ccc(C(F)(F)F)cc1[N+](=O)[O-] | -13% | -7%
CSCCC(NS(=O)(=O)c1ccc(Cl)cc1)C(=O)OCC(=O)N1CCCc2ccccc21 (stereo unspecified) | -8% | -13%
CCC(C(=O)NCc1ccccc1)n1c(CSCCOc2ccccc2)nc2ccccc21 (stereo unspecified) | -22% | -12%
Cc1cc(Cl)c(S(=O)(=O)NC2CCCCC2)cc1OCC(=O)Nc1nncs1 | nt | -17%
COc1cc(C2C3=C(COC3=O)OC(C)(C)Oc3cc4c(cc32)OCO4)cc(OC)c1OC (stereo unspecified) | ? | ?
CC(C)C(=O)Nc1nnc(SCc2cc(=O)n3ccccc3n2)s1 | -23% | -15%
O=C(NC1CC(=O)N(c2ccc(F)cc2)C1)c1cccs1 (stereo unspecified) | -12% | -7%
Cc1cc(Br)cc2cn[nH]c12 | -11% | -13%
N#CC1=C(N)Oc2n[nH]c(-c3cccs3)c2C1c1cccnc1 (stereo unspecified) | -9% | -4%
COc1ccc(NC(=O)CCNS(=O)(=O)c2cccc3nsnc23)cc1Cl | 3% | 5%
O=C1CSc2ccc(C(=O)O)cc2N1 | -1% | -3%
COc1ccc(CNC(=O)CCCc2nnc3n(C(C)C)c(=O)c4sccc4n23)cc1 | -14% | -10%
CCOC(=O)C1=C(CCc2ccccc2)NC(=O)NC1c1ccc(C#N)cc1 (stereo unspecified) | -14% | -17%
Cc1cc(NC(=O)/C=C/c2ccc(F)cc2)n(-c2nc3ccccc3[nH]2)n1 | i | -14%
O=C(O)CC1S/C(=N\N=C/c2ccccc2)N(c2ccc(O)cc2)C1=O (stereo unspecified) | i | -16%
CCc1ccc(C2CC(=O)N(c3cccc(C(F)(F)F)c3)C3=C2C(=O)OC3)cc1 (stereo unspecified) | 10% | -1%
COc1cccc(OC)c1C(=O)N1CCN(Cc2ccccc2C)CC1 | -13% | -11%
COc1ccc(-n2c(O)c(C=NC3CC3)c(=O)[nH]c2=O)cc1 | nt | -7%
CC(=O)Oc1ccccc1C1OC(=O)c2ccccc2N1C(C)=O (stereo unspecified) | -22% | ?
O=C(Nc1ccc(F)cc1F)NC1CCN(Cc2c(F)cccc2Cl)CC1 | -5% | -10%
CCC(=O)Nc1ccc(NCc2cccs2)cc1 | -14% | -4%
O=C(c1ccc(-c2ccccc2Cl)o1)N1CCC1 | -4% | -9%
Cc1c([N+](=O)[O-])cc(C(=O)N2CCOCC2)cc1[N+](=O)[O-] | -4% | -7%
c1ccc(CSC2=NCCS2)cc1 | 8% | -4%
CCC(C)[C@H](NC(=O)NCCCOC(C)C)C(=O)OC (stereo partly specified) | i | -12%
O=C(CSc1nnc(CNC(=O)c2cccs2)o1)c1ccccc1 | i | -13%
Cc1cc(OCC(=O)N2CCC(C(N)=O)CC2)c2c3c(c(=O)oc2c1)CCCC3 | 9% | 17%
O=c1cc(CSc2nnc(COc3ccccc3)n2-c2ccccc2)c2ccccc2[nH]1 | -4% | -3%
COc1ccc(CNC(=O)c2cc(-c3cc(C)ccc3O)n[nH]2)cc1 | -18% | -11%
CN(C)C(CNC(=O)CNC(=O)c1ccc(Br)cc1)c1ccccc1 (stereo unspecified) | -8% | -2%
COc1ccccc1CN(C)C(=O)c1sccc1-c1ccccc1 | i | -13%
CCCCn1nnnc1C(c1ccccc1)N1CCCN(Cc2ccc(F)cc2)CC1 (stereo unspecified) | 8% | -10%
CCOc1cc(C)nc(N2CCN(C3CCCCC3)CC2)n1 | -13% | -11%
Cc1cccn2c(=O)c3cc(C#N)c(=NC(=O)c4ccccc4)n(Cc4ccco4)c3nc12 | -20%&-12% | ?
O=c1c2[nH]c3ccc(F)cc3c2ncn1CCN1CCN(Cc2ccccc2)CC1 | i | -8%

Exported field by field: 2 of the compounds above.
CCCCn1nnnc1C(c1ccccc1)N1CCCN(Cc2ccc(F)cc2)CC1 (stereo unspecified)
  Vaccinia mCherry: 8% | Vaccinia Venus: -10%
CCOc1cc(C)nc(N2CCN(C3CCCCC3)CC2)n1
  Vaccinia mCherry: -13% | Vaccinia Venus: -11%

More compounds:
mol | Vaccinia mCherry | Vaccinia Venus
COc1ccc(C(=O)NCCN2C(=O)S/C(=C\c3cccnc3)C2=O)c(OC)c1OC | i | -6%
O=C(/C=C/c1ccccc1Cl)Nc1ccc(-c2nnc3n2CCCCC3)cc1 | -15% | -4%
Cn1c(CCCOc2ccc(Cl)cc2Cl)n[nH]c1=S | -20% | -17%
COCCN(CCOC)S(=O)(=O)c1ccc(C(=O)Nc2sc3c(c2C(N)=O)CCCCC3)cc1 | i | -18%
C[C@H](NC(=O)c1[nH]cnc1C(=O)Nc1ccc(Cl)cc1)c1ccccc1 | -8% | ?
Cc1cc(-c2ccccc2)[nH]c(=O)c1C#N | -2% | -3%
Cc1ccc(C(=O)NCC(=O)OCc2nnc(-c3ccc([N+](=O)[O-])cc3)o2)cc1 | i | 6%
COc1cc2c(C(=O)N(C)c3cccc(C(F)(F)F)c3)cn(CC(C)C)c(=O)c2cc1OC | -16% | -14%
COc1cc2c(cc1OC)CN(C(=O)[C@@H]1C[C@H](NCc3cn(C)c4ccccc34)CN1C1Cc3ccccc3C1)CC2 | -1% | 1%
C[C@H](NC(=O)[C@H](Cc1ccccc1)NC(=O)c1cc2cc(Cl)ccc2n1C)C(=O)O | -17% | -8%
Cc1noc(C)c1COc1cccc(C(=O)OCC(=O)N2CC(=O)Nc3ccccc32)c1 | ? | ?
CCOc1ccc2c(c1)OC(c1ccc(OC)cc1)(C(F)(F)F)NC2=O (stereo unspecified) | ? | ?
CC(C)COc1ccc(C2(C#N)CC[N+](C)(C)CC2)cc1 | nt | -1%
CCOc1ccc(NC(=O)CSc2ncn[nH]2)c([N+](=O)[O-])c1 | i | -16%
Cc1ccc(C(=O)c2ccc([N+](=O)[O-])cc2)cc1C | i | -13%
Cc1cccc(CSC(=N)N)c1 | i | -17%
CCOc1ccc(S(=O)(=O)NCCC(=O)NC(C)CCc2ccccc2)cc1 (stereo unspecified) | -14% | -26%
NC(=O)c1ccc(Nc2ccc([N+](=O)[O-])cc2[N+](=O)[O-])cc1 | ? | -15%
Cc1cccc(S(=O)(=O)Nc2ccc(C)c3c2OC(C)(C)C3)c1 | i | -10%
COc1cccc(C(=O)N2CCN(C(=O)C3CCCO3)CC2)c1 (stereo unspecified) | i | 4%
CNCCc1nc(N)n[nH]1 | -9% | -5%
O=C(OCC1CCC=CO1)C1CCC=CO1 (stereo unspecified) | i | -17%
O=C(CCCn1c(=O)c2sccc2n(Cc2cccc(Cl)c2)c1=O)NCc1ccc2c(c1)OCO2 | -13% | -9%
Cc1ccc(S(=O)(=O)N2CCN(C(=S)NCC3CCCO3)CC2)cc1 (stereo unspecified) | -14% | -16%
